Screens as filed in PubChem BioAssay.
CtBP-E1A inh: qHTS Assay for Inhibitors of the CtBP/E1A Interaction; AID 651724, 2012; 340,000 tested, 0.49% active; activity change, % (test concentration not listed); AlphaScreen GST-E1A/His-CtBP binding, 1536-well; active compounds read low; control for the full effect not named in the record; CtBP / adenovirus E1A interaction (AlphaScreen); in the data active means activity change below about -65%; inconclusive means about -30% to -65%; inactive means above about -30%; also: % is scaled to controls: 0 for no effect and ±100 for the full control effect
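Homogeneous bead-based format: GST-tagged E1A captured on glutathione donor beads, His-tagged CtBP on nickel acceptor beads; compounds precede bead addition by 2 h at 37 °C.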
TRPML1 agonist: qHTS for Agonists of the Human Mucolipin Transient Receptor Potential 1 (TRPML1). activation, % (test concentration not listed). 410,000 tested, 0.12% active. Mucolipin-1 (Homo sapiens), Q9GZU1. TRPML1-expressing cells, Ca2+ dye fluorescence, FDSS; host cell line not named in the record; reference of the full effect not given here; in the data active = activation above about 50%; inconclusive = about 30% to 50%; inactive = below about 30%; also: 0% is about no effect; the text of the record puts the active cut at 80%
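Kinetic FDSS Ca2+ read in Tet-induced TRPML1-DL cells (ABD Ca8 dye plus quencher, 45-90 min RT loading): baseline, then compound, then 110 s agonist window; EC80 agonist 54-4 at 4uM final added afterwards for a 110 s antagonist window.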
D2 potentiator: Beta-Arrestin HTS for Positive Allosteric Modulators of the Human D2 Dopamine Receptor: Potentiators; D(2) dopamine receptor (Homo sapiens), P14416; DiscoveRx D2 beta-arrestin cells, luminescence, 90 min; 100% = 57 uM dopamine signal; potentiation, % (concentration not given with the values); 360,000 tested, 0.23% active; AID 624464, 2012; active = potentiation of 50% or more; inconclusive = 30% to 50%; inactive = 30% or less;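 also: compound concentration not given in the record; tested on top of an EC20 dose of dopamine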
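PathHunter D2 cells, attached overnight at 37 deg C, received compound in DMSO plus dopamine at EC20 (50 nM final) for 90 min at 37 deg C. Beta-arrestin recruitment was read as luminescence after 1 h with detection reagent at ambient temperature.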
TRPV1 potentiator: HTS Assay for Compounds that Act as Potentiators of the Vanilloid Receptor 1; TRPV1-expressing cells, Fluo-8 calcium influx, capsaicin EC20 potentiation; host cell line not named in the record; control for the full effect not named in the record; potentiation, % at 8.33 µM; 320,000 tested, 0.02% active; Transient receptor potential cation channel subfamily V member 1 (Homo sapiens), Q8NER1; active means potentiation above 80%; inconclusive means 30% to 80%; inactive means below 30%; also: 0% is about no effect
Target sequence (Q8NER1 whole entry, looked up): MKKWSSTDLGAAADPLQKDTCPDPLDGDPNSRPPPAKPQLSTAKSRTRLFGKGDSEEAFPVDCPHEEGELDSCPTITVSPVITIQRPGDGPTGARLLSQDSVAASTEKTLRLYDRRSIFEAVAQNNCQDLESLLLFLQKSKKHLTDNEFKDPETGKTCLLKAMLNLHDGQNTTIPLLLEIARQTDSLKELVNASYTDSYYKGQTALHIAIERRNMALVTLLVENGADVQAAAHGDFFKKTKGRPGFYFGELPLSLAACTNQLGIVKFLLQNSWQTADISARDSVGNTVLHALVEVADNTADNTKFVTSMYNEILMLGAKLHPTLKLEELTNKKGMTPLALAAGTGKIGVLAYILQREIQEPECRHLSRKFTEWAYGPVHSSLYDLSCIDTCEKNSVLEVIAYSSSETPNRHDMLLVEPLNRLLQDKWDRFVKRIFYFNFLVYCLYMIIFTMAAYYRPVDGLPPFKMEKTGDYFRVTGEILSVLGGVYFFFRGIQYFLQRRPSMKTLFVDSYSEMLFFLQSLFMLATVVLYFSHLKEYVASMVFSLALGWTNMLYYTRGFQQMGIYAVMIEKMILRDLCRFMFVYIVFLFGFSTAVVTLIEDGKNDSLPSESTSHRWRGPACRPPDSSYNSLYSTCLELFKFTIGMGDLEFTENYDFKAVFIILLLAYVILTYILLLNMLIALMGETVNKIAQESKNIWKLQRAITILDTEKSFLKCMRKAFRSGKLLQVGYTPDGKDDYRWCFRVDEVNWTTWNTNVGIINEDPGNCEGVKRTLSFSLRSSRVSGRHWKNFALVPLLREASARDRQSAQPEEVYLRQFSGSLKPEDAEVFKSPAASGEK
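Cells expressing TRPV1 were dye-loaded with Fluo-8 and read kinetically: 10 s baseline, 3 min after compound (agonist portion), then 2 min after EC20 capsaicin (allosteric enhancer portion). Calcium-bound dye fluorescence at 480/520 nm.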
Six1-Eya2 blk: qHTS Assay for Inhibitors of the Six1/Eya2 Interaction; Homeobox protein SIX1 (Homo sapiens) + Protein phosphatase EYA2 (Homo sapiens), …; AlphaScreen GST-Six1/His-Eya2 binding, biochemical; active compounds read low; control for the full effect not named in the record; activity change, % (no concentration beside the values); 360,000 tested, 0.56% active; AID 651725, 2012; in the data active = activity change below about -65%; inconclusive = about -30% to -65%; inactive = above about -30%; also: % is scaled to controls: 0 for no effect and ±100 for the full control effect
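AlphaScreen with GST-Six1 and His-Eya2 (5X mix: 250 nM and 500 nM), glutathione donor and nickel acceptor beads; buffer 50 mM Tris pH 8.0, 300 mM NaCl, 1 mM TCEP; 1 h at 37 C in the dark.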
TRPML1 blocker: qHTS for Inhibitors of the Human Mucolipin Transient Receptor Potential 1 (TRPML1). activity change, negative = inhibition, % (no concentration beside the values). 390,000 tested, 0.02% active. Mucolipin-1 (Homo sapiens), Q9GZU1. AID 624415, 2012. TRPML1-inducible cells, Ca2+ dye fluorescence, FDSS; active compounds read low; inhibition of EC80 agonist-evoked calcium signal; in the data active means activity change below about -50%; inconclusive means about -30% to -50%; inactive means above about -30%;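 also: stimulus is agonist 54-4 at its EC80 concentration; % is scaled to controls: 0 for no effect and ±100 for the full control effect; compound concentration not given in the record; the text of the record puts the active cut at -80%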
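Calcium fluorescence in TRPML1-DL cells induced overnight with Tet: a 110 s read after compound pin addition, then a 110 s antagonist read after challenge with 54-4 at 4 uM final (EC80).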
The depositor's hits bear a star; u = inconclusive; x = not tested or not shown; & = joins results of further samples.

Each structure is followed by: Six1-Eya2 blk, CtBP-E1A inh, TRPML1 agonist, TRPV1 potentiator, D2 potentiator, TRPML1 blocker
1. CC(C)N1C(=O)CSC1c1ccc(Br)cc1 (configuration not stated)
  -1, -3, 0.1, 22, -3, -5
2. CCOC(=O)c1cnc2ccc(C)cc2c1N(C)Cc1ccccc1
  16, 9, 6.0, -3, 3, 70
3. O=C(Cn1cc([N+](=O)[O-])ccc1=O)NCC1COc2ccccc2O1 (configuration not stated)
  4, 20, -0.2, -3, -4, 11
4. COc1cccc(-c2nnc(SC(C(=O)c3c[nH]c4ccccc34)c3ccccc3)n2C)c1 (configuration not stated)
  -10, -4, -0.3, 7, -5, 11
5. CN(C)CCNc1ccc2nnn3c4ccc(O)cc4c(=O)c1c23
  -77*, 0, 0.1, x, -15, -12
6. CCOc1cccc(/C=C(\C#N)C(=O)NC2CC2)c1
  5, x, -0.5, x, -11, 24
7. COc1ccc(C2NC(=S)NC3=C2CCCC3=C2SCCS2)cc1 (configuration not stated)
  -12, -18, 1.3, -4, -6, -5
8. O=C(CC1C=Cc2ccccc2N1C(=O)c1ccccc1)c1ccccc1 (configuration not stated)
  4, x, 3.3, -10, 3, 36
9. Cc1cc(OC(=O)c2ccccc2)n(CCC#N)n1
  -5, 4, -0.1, -4, -9, 0
10. CC(C)C(=O)NC(=S)Nc1ccc(S(=O)(=O)Nc2nccs2)cc1
  -3, x, -0.2, -7, -4, 6
11. NC(=O)c1ccc(NS(=O)(=O)c2ccccc2F)cc1
  2, 2, -0.4, 3, -12, -1
12. Cc1nnsc1C(=O)Nc1cccc(Cl)c1Cl
  -3, -6, -0.1, 2, -8, 5
13. COc1cc2c(cc1OC)C(c1ccccc1)N(C(=O)c1cccc(S(C)(=O)=O)c1)CC2 (configuration not stated)
  -1, -1, -0.2, 5, -7, 11
14. Cc1cc(C)c2c(c1)/C(=N\N=c1\sc3ccccc3n1C)C(=O)N2
  -2, -4, 0.0, 0, -6, 9
15. NC(=O)c1ccc(NC(=O)CS(=O)(=O)c2cn(CC(=O)N3CCCC3)c3ccccc23)cc1
  -4, 2, -0.2, 2, 6, 2
16. O=C(NCSc1ccnc(SCNC(=O)c2ccccc2)n1)c1ccccc1
  -1, 6, 4.3, 3, -2, 6
17. Cc1nn2cc(-c3ccc(N)cc3)nc2s1
  -6, -9, 1.0, -3, -8, 11
18. CCCCCCn1nc(C(=O)N(CCCC)c2c(N)n(CCC)c(=O)[nH]c2=O)c2ccccc2c1=O
  24, 9, -0.6, x, -7, -7
19. c1ccc(CCc2ccccn2)cc1
  0, -4, 0.3, x, -19, 1
20. CCOC(=O)C1=CCC(c2ccccc2Cl)N(S(=O)(=O)c2ccc(C)cc2)C1 (configuration not stated)
  1, 0, 0.3, x, 1, 70
21. COc1ccc(N2C(=O)c3ccccc3NC23CCC(C)CC3)cc1 (configuration not stated)
  1, 6, 2.8, 0, 0, 6
22. Cc1cc(C(=O)OCCN2C(=O)c3ccccc3C2=O)c2ccccc2n1
  -25, -14, -0.3, -13, -3, -14
23. Cc1cc(C)c(CSc2ncc(-c3ccc([N+](=O)[O-])cc3)[nH]2)c(C)c1
  -20, -22, 1.2, 9, -4, -25
24. COc1cccc(NC(=O)CN(C)C(=O)c2c(C)nn(Cc3ccc(C)cc3)c2Cl)c1
  -6, 4, 0.4, 18, -6, 0
25. O=C(CN1CCC(O)CC1)N1c2ccccc2C=Cc2ccccc21
  3, 0, 0.4, 1, -16, 8
26. CC1=CC(=NOS(=O)(=O)c2ccc(C)cc2)CC(C)(C)C1
  0, 17, -0.1, x, u, x
27. CCC(C)(C)C1CCC(=NNC(=O)c2ccoc2C)CC1 (configuration not stated)
  -1, 1, 0.9, 10, 2, -15
28. CCCCC(=O)Nc1cccc(NC(=O)c2ccc(Br)cc2)c1
  3, 9, 0.0, 0, -9, -6
29. CCSc1nsc(NC(=O)Nc2ccccc2F)n1
  15, -2, 1.5, -1, -8, 6
30. Cc1ccc(CN2CCN(C3CCC3)CC2CCO)cc1 (configuration not stated)
  -5, 0, -0.7, -3, -31, -1

5 entries out of the list, ordered by length of the SMILES, lowest first:
Each structure is followed by: Six1-Eya2 blk, CtBP-E1A inh, TRPML1 agonist, TRPV1 potentiator, D2 potentiator, TRPML1 blocker
19. c1ccc(CCc2ccccn2)cc1
  0, -4, 0.3, x, -19, 1
6. CCOc1cccc(/C=C(\C#N)C(=O)NC2CC2)c1
  5, x, -0.5, x, -11, 24
28. CCCCC(=O)Nc1cccc(NC(=O)c2ccc(Br)cc2)c1
  3, 9, 0.0, 0, -9, -6
25. O=C(CN1CCC(O)CC1)N1c2ccccc2C=Cc2ccccc21
  3, 0, 0.4, 1, -16, 8
20. CCOC(=O)C1=CCC(c2ccccc2Cl)N(S(=O)(=O)c2ccc(C)cc2)C1 (configuration not stated)
  1, 0, 0.3, x, 1, 70

Continuation:
Each structure is followed by: Six1-Eya2 blk, CtBP-E1A inh, TRPML1 agonist, TRPV1 potentiator, D2 potentiator, TRPML1 blocker
31. COc1cc2c(cc1OC)C(C(=O)N1CCCCC1)C(c1ccccc1F)N(C)C2=O (configuration not stated)
  2, -1, -0.4, -3, -2, -3
32. O=C(NCc1ccco1)c1cc([N+](=O)[O-])ccc1N1CCOCC1
  2, x, -1.0, u, -12, -3
33. CC1CCN(S(=O)(=O)c2ccc(NC(=O)c3ccco3)cc2)CC1
  0, 6, -1.7, -19, -2, -1
34. COc1cccc(OCCn2cc(C=O)c3ccccc32)c1
  10, 2, 0.8, -5, 6, -3
35. O=C(NC1CCCCC1)c1ccc2c(c1)OCCO2
  7, 1, -0.1, 2, 2, 10
36. CN(C)CCCN1C(=O)C(O)=C(C(=O)c2cc3ccccc3o2)C1c1ccccn1 (configuration not stated)
  -1, 2, -0.3, x, -7, 1
37. Cc1cccc(-c2n[nH]c(=S)n2/N=C/c2cccs2)c1
  -11, x, 0.6, 15, -32, -24
38. Cc1c2c(nc3ccccc13)OCC2
  6, 1, -0.7, 19, -3, -2
39. COc1cccc(OC)c1C(=O)Nc1sc2c(c1C(N)=O)CCN(Cc1ccccc1)C2
  -11, -2, 5.4, 8, -3, 2
40. CC1CCCN(c2nc3ccsc3c(=O)s2)C1 (configuration not stated)
  63, 49, 1.3, u, -4, -2
41. CCOc1cc(/C=N/NC(=O)c2ccc(CN3CCOCC3)cc2)ccc1OCc1ccccc1
  2, 14, 1.2, 8, 16, 35
42. O/N=C/c1ccccc1OCc1ccc(Cl)cc1
  4, -1, 0.1, 15, 3, -6
43. Cc1c(C(=O)NCCc2ccccc2)oc2ccc(S(=O)(=O)N3CCC4(CC3)OCCO4)cc12
  -2, -14, 0.5, 1, -5, 16
44. CN(C)S(=O)(=O)c1ccc(NC(=O)CSc2nnnn2C)cc1
  2, -1, 0.4, -12, -8, 2
45. Cc1nc(-c2ccccn2)sc1C(=O)Nc1ccc(F)cc1
  -10, -24, 0.0, -35, 6, -5
46. O=C(N/N=C/c1cccnc1)C1CC1(c1ccccc1)c1ccccc1 (configuration not stated)
  -2, 2, 2.4, -1, -6, 18
47. Cc1cccc(C)c1NC(=O)C(NC(=O)c1ccccn1)c1ccccc1[N+](=O)[O-] (configuration not stated)
  -7, x, 0.6, -4, -3, 31
48. Cc1ccc(NC(=O)c2ccc(S(=O)(=O)Nc3c(C)n(C)n(-c4ccccc4)c3=O)cc2)nc1
  6, -23, 0.7, 0, 0, 6
49. Cc1nc(Nc2cccc(C(F)(F)F)c2)nc2c1C(=O)CC(C)C2 (configuration not stated)
  5, 15, -0.5, u, -3, 6
50. COc1ccc(OC)c(NC(=O)c2csc(Cl)c2OC)c1
  -6, 7, 2.6, -4, -2, 58
51. CCOc1ccc(S(=O)(=O)Nc2cccc(C(=O)N3CCN(c4ccc(OC)cc4)CC3)c2)cc1
  -8, -1, 1.6, 7, -9, -17
52. CC(C)(C)NCC(=O)c1c[nH]c2ccccc12
  5, 9, -0.1, x, -12, u
53. N/C(=N\OC(=O)CCCc1ccccc1)c1ccccn1
  1, 2, -0.5, 7, 3, -14
54. O=C(O)c1cccc2c1Cc1cc([N+](=O)[O-])ccc1-2
  -27, -20, -0.1, x, 2, u
55. Cc1ccc(S(=O)(=O)N2CCC(C(=O)NCc3ccccc3Cl)CC2)cc1
  21, 31, 2.1&0.2, -3, -13, 10&-17
56. Cc1cccc(CC(=O)NCCS(=O)(=O)N2CCN(c3ccccc3)CC2)c1
  5, -7, -0.3, x, 2, 4
57. O=S(=O)(N1CCOCC1)N1CCN(c2ccc(F)cc2)CC1
  0, -12, -0.1, 0, 3, 6
58. C[C@H](CO)N1C[C@H](C)[C@@H](CN(C)S(C)(=O)=O)Oc2c(NC(=O)c3ccncc3)cccc2C1=O
  4, 10, -0.3, x, -4, -11
59. CCOc1ccccc1CN1CCCC(CNC(=O)Cc2ccc(OC)cc2)C1 (configuration not stated)
  9, -3, 0.0, -1, -6, 1
60. O=C(COc1ccccc1)Nc1c2c(nn1-c1ccccc1)CS(=O)C2 (configuration not stated)
  0, -2, -0.2, u, -6, 27

Each structure is followed by: Six1-Eya2 blk, CtBP-E1A inh, TRPML1 agonist, TRPV1 potentiator, D2 potentiator, TRPML1 blocker
61. Cn1cc(/C=N/NC(=O)c2cc3cc(Br)ccc3o2)c2ccccc21
  3, 9, -0.8, 9, -9, 10
62. CCOC(=O)c1c(C)[nH]c(C(=O)OCc2csc(CC(=O)Nc3ccccc3C)n2)c1C
  -3, 2, 1.1, 6, 14, 12
63. O=C(CSc1nnnn1-c1ccccc1)CC(=O)Nc1ccc(Cl)cc1
  -5, -1, -0.1, -18, -8, -3
64. COC(=O)c1ccccc1NC(=O)CNC(=O)c1ccco1
  11, 0, -0.3, 4, -5, -7
65. O=C(O)[C@H](Cc1ccccc1)N1C(=O)c2c(Cl)c(Cl)c(Cl)c(Cl)c2C1=O
  -1, -10, 0.4, 15, -3, 0
66. CCOC(=O)c1[nH]c2ccccc2c1N=C(C)N(CC)CC
  -2, 11, 3.0, 3, -3, 2
